VACV Venus inh – inhibitors of vaccinia virus (Venus reporter); Vaccinia virus Venus reporter expression, fluorescence; Potency, µM (top dose mostly 36.5 µM), inactives show at the highest dose activity change, negative = inhibition, actives largely listed as inhibitors; 330,000 tested, 0.46% active; active means well fitted inhibition curve with a large enough effect; inconclusive means small, poorly fitted or top-dose-only effect; inactive means no such curve, though single readings can be large or run the other way; tested in A549 cells; further: nearly all actives have a fitted effect of over 30% in size; inactives centre near -10
VACV mCherry inh – inhibitors of vaccinia virus infection (mCherry reporter signal); Vaccinia virus mCherry reporter infection, fluorescence; about a quarter of the inactives have no number; Potency, µM (series often up to 36.5 µM), without a hit: top-dose activity change, negative = inhibition, usual class: inhibitors; 310,000 tested, 0.63% active; AID 720579; active = well fitted inhibition curve with a large enough effect; inconclusive = small, poorly fitted or top-dose-only effect; inactive = no such curve, though single readings can be large or run the other way; tested in A549 cells; further: nearly all actives have a fitted effect of over 35% in size; inactives centre near -10
* marks the source's active call; other numbers are inactive results; i = inactive; ? = inconclusive; . = not tested or not shown; [ ] = dose if it differs, or a comment. On the % scale 0 is the no-effect control and ±100 the full control effect; potency means the concentration at half of the fitted maximal effect.

SMILES | VACV Venus inh | VACV mCherry inh
Cc1ccc(Sc2ccc(N3CCC(C(=O)Nc4cc(C)cc(C)c4)CC3)nn2)cc1 | -3.9% | -8.6%
CC(C)(C)NC(=O)CC1C[C@H](C(=O)N2CCCCC2)[C@@]2(C)c3[nH]c4ccccc4c3CCN2C1=O (stereo partly specified) | -18.6% | -29.1%
O=C(NCCCNC(=O)c1ccco1)c1cccc(F)c1 | 0.0% | -10.8%
COc1cccc2c1Oc1ncccc1N(C(=O)CCC(=O)NCCC(C)C)C2 | -6.4% | -11.2%
CCCOc1cccc(C(=O)NC(=S)Nc2ccc(N3CCN(C)CC3)cc2)c1 | -1.6% | -24.7%
CCOc1ccc(CCNC(=O)COC(=O)CNC(=O)c2ccc(Br)o2)cc1OCC | -4.0% | i
O=C(Nc1cccc2ncccc12)c1ccc(-c2ccc(Cl)cc2Cl)o1 | -25.4% | -29.2%
COc1cc(OC)c2c(c1)C(=O)OC2c1cc(OC)c(OC)cc1C (stereo unspecified) | -13.3% | -18.4%
Cc1ccccc1N(C(=O)Cc1cccs1)C(C(=O)NC1CCCCC1)c1cn(C)nc1C (stereo unspecified) | -8.3% | -22.3%
Clc1cccc(-c2ccc(-c3nc4ccccn4c3NCc3ccccc3)cc2)c1 | ? | ?
COc1ccc(NC(=O)CSc2nc3ccccc3nc2N2CCOCC2)cc1 | -9.5% | -0.2%
CC(C)n1c(N2CCN(C(=O)Nc3ccc(F)cc3F)CC2)nc2ccccc21 | -16.8% | -26.5%
CCOC(=O)[C@H]1[C@H]2COc3ccccc3[C@@H]2N2C(=O)c3cc(Cl)ccc3NC(=O)[C@@]12C | -14.1% | -11.0%
CCOC(=O)c1cnc2ccc(C(=O)OC)cc2c1NCCN1CCOCC1 | -8.4% | -16.5%
CNC(=O)c1c(NC(=O)CCS(=O)(=O)c2ccc(Cl)cc2)sc2c1CCN(C(=O)OC)C2 | -15.5% | -4.5%
O=C(NCCS(=O)c1ccc(Cl)cc1)c1cccc(Cl)c1 (stereo unspecified) | -9.1% | -4.3%
COc1ccccc1CNS(=O)(=O)CC12CCC(CC1=O)C2(C)C (stereo unspecified) | -1.7% | -5.2%
CCOc1ccc(Nc2cc(Nc3ccccc3OCC)nc(C=C(C#N)C#N)n2)cc1 | -8.9%[7.34 µM] | -4.0%[7.34 µM]
CCOC(=O)C(NC(=O)NCc1ccccc1)(OCC)C(F)(F)F (stereo unspecified) | -10.3% | -25.5%
N#Cc1ccc2ccn(CC(=O)NCc3ccco3)c2c1 | -1.2% | -9.6%
O=C(Nc1ccc(CSc2ccccc2)cc1)c1ccccc1 | -2.8% | -5.0%
O=C(Nc1ccccn1)C1COc2ccccc2O1 (stereo unspecified) | -8.3% | -4.6%
O=C(C1=C[C@H](c2ccccc2)C[C@H](OCCCCO)O1)N1CCN(Cc2ccc3c(c2)OCO3)CC1 | -16.6% | -0.6%
Clc1ccc(CSc2nnc(-c3ccncc3)s2)cc1 | -11.6% | i
O=C(CSc1nnc(-c2ccccc2)n1C1CCCCC1)N1CCCC1 | -3.1% | -7.1%

Part of the list above in order of molar mass, largest number first.
SMILES | VACV Venus inh | VACV mCherry inh
CCCOc1cccc(C(=O)NC(=S)Nc2ccc(N3CCN(C)CC3)cc2)c1 | -1.6% | -24.7%
O=C(Nc1ccc(CSc2ccccc2)cc1)c1ccccc1 | -2.8% | -5.0%
O=C(Nc1ccccn1)C1COc2ccccc2O1 (stereo unspecified) | -8.3% | -4.6%

Following part:
SMILES | VACV Venus inh | VACV mCherry inh
O=C(c1cnn2ccccc12)N(Cc1ccco1)C1CCCC1 | -10.1% | i
CC(C)(/C=N/O)/[N+]([O-])=C/c1ccccc1 | -4.4% | i
CC1=C(N2CCOCC2)CCC1=O | -2.0% | -26.0%
CCc1nc(NCCCN2CCOCC2)c2oc3ccccc3c2n1 | -6.1% | .
CCOc1ccccc1NC(=O)CSC1=Nc2ccccc2C2=NC(CC(=O)NCc3ccc4c(c3)OCO4)C(=O)N12 (stereo unspecified) | -3.7% | -12.9%
CC(=O)C[C@H](O)CC(=O)[C@H]1OC(=O)CCCCCCCc2ccccc21 | -4.2% | -18.3%
NC(=O)c1cc[n+](CC2=C(C(=O)O)N3C(=O)[C@@H](NC(=O)C(c4ccccc4)S(=O)(=O)[O-])[C@H]3SC2)cc1 (stereo partly specified) | -1.2% | i
CC12CN(Cc3ccccc3)CC(C)(CN(Cc3ccccc3)C1)C2=NO | -6.4% | -14.4%
O=[N+]([O-])c1cccc(CON=Cc2ccccc2O)c1 | -6.8% | -6.6%
O=C(Cn1cnc([N+](=O)[O-])n1)N/N=C/c1ccc(O)cc1O | 3.2% | -22.9%
CC(=O)N1CCN(C(=O)c2ccc(Cl)c(NC(=O)c3cccs3)c2)CC1 | -6.1% | i
CCOC(=O)N1CCN(C(=O)COc2ccccc2[N+](=O)[O-])CC1 | -10.8% | -14.0%
CCCCCOc1ccc(C(=O)NCC2(c3ccccc3)CCOCC2)cc1 | -21.9% | -23.9%
Cc1ccc(NS(=O)(=O)c2ccc(C(=O)NCCN3CCOCC3)cc2)cc1 | -13.3% | -17.8%
COc1ccc2nc3n(c(=O)c2c1)-c1ncccc1C(=O)NC3Cc1ccccc1 (stereo unspecified) | -6.4% | -1.0%
CCN(CC(=O)Nc1ccccc1C(F)(F)F)C(=O)CCOc1ccccc1C | -18.3% | -3.0%
COc1ccc2nc3sc(C(=O)N4CCN(c5ccc(F)cc5)CC4)cc3cc2c1 | -13.6% | -17.2%
CCOC(=O)c1c(C)[nH]c(/C(C)=N/NC(=O)c2cccnc2)c1C | -4.9% | -9.2%
CC1OC(C(C)(C)C)CC2=C1C(=O)OC(C)(C)O2 (stereo unspecified) | -10.7% | -22.4%
CNC(=O)COc1ccc2oc3c(c2c1)CCCC3 | -9.3% | i
O=C(N/C(=C\c1ccc2c(c1)OCO2)C(=O)N1CCOCC1)c1ccccc1Br | 0.5% | -22.2%
Nc1cc(SCc2ccc(Cl)cc2Cl)ncn1 | -2.3% | -23.2%
CC(C(=O)N1CCN(C2c3ccccc3-c3ccccc32)CC1)N1C(=O)c2ccccc2C1=O (stereo unspecified) | -11.1% | -14.8%
CCC(CC)CN1C(Nc2ccccc2)=NC[C@@H]1CC(C)C | -11.6% | -4.4%
COCCn1c(SCC(=O)N2CCCCCC2)nnc1-c1ccco1 | 3.3% | -15.8%
SMILES | VACV Venus inh | VACV mCherry inh
Cc1ccc2c(c1)C(=O)N1[C@H]3c4cc(C)ccc4OC[C@@H]3[C@H](c3ccccc3)[C@]1(C)C(=O)N2 | ? | -6.3%
O=C(OCc1cn([C@H]2CN(CC3CCCCC3)[C@@H](c3ccccc3)C[C@@H]2O)nn1)c1ccccc1 | -11.1% | i
Cc1ccc(-c2nnn3c2nc(NCc2ccc4c(c2)OCO4)c2ccccc23)cc1 | -0.4% | -5.2%
c1ccc(CN2CCC(N=C3NN=C(c4ccc5c(c4)OCCO5)CS3)CC2)cc1 | -15.6% | -18.4%
O=C(c1ccccc1Br)N1CCN(c2ncccn2)CC1 | 0.7% | -8.1%
COc1cccc(/C=N/Nc2cc(-n3nc(C)cc3-c3ccccc3)ncn2)c1O | ? | 12.6µM*
COc1ccc(C)cc1Nc1n[n+](-c2ccccc2)c(-c2ccc(NC(C)=O)cc2)s1 | -19.9% | i
CCOC(=O)c1ccccc1NC(=O)CCc1c(C)nc2ncnn2c1C | -3.0% | -4.3%
CCOC(=O)C1(C)CCCN(C(=O)c2c(F)cccc2F)C1 (stereo unspecified) | 5.7% | 8.6%
COC(=O)c1cc(CNC(=O)Cc2ccsc2)ccc1OC | 0.4% | -5.3%
CCn1c(C2CC(=O)N(c3ccc(C)c(C)c3)C2)nc2ccccc21 (stereo unspecified) | -7.5% | 4.1%
O=C(NC1CC1)c1ccc(-n2cccc2)cc1 | -14.0% | i
COc1ccc(C2=Nc3ccc(F)cc3NC(c3cccc(C(F)(F)F)c3)=N2)cc1 | 0.6% | -8.0%
COCCNC(=O)CCn1c(=O)c2cc(OC)c(OC)cc2n(CC(=O)Nc2ccc(Cl)cc2F)c1=O | -7.9% | -3.2%
CC1CCC(NC(=O)CN2C(=O)c3cccnc3Oc3ccc(Cl)cc32)CC1 (stereo unspecified) | -24.1% | i
CC(C)(C)C(=O)Nc1sc(-c2ccccc2)cc1C(=O)O | 8.5% | ?
COc1cc(N=Nc2c(O)c3ccccc3[nH]c2=O)c(OC)cc1N=Nc1ccccc1 | 2.4% | -10.7%
Cc1ccc(N(CC(=O)N2CCN(c3ccccc3)CC2)S(=O)(=O)c2c(C)noc2C)cc1 | -11.5% | -15.6%
CCOc1cc(/C=C/c2cc(C(=O)O)c3ccccc3n2)ccc1OC | -4.7% | -11.2%
Cc1ccc(CCNC(=O)CS(=O)Cc2nc(-c3ccccc3F)oc2C)cc1 (stereo unspecified) | -12.7% | -13.9%
CCOC(=O)C1=CCN(S(=O)(=O)c2ccc(C)cc2)C1c1cccc(C)c1 (stereo unspecified) | 3.4% | i
CC(C)(C)n1nnnc1CN1CCN(C(c2ccccc2)c2ccccc2)CC1 | -14.7% | -23.0%
COc1cc(NS(=O)(=O)c2ccc(NC(=O)c3ccccc3C(=O)O)cc2)nc(OC)n1 | -11.2% | -12.5%
CCn1ccnc1CN1CCCC(C(=O)c2ccc3c4c(cccc24)CC3)C1 (stereo unspecified) | -9.6% | ?
O=C(CSC(=S)N1CCCC1)NCCc1ccccc1 | -5.2% | -4.3%
SMILES | VACV Venus inh | VACV mCherry inh
COc1ccc(-c2cc(C(=O)NCCCN3CCOCC3)no2)cc1 | -9.4% | -23.9%
Cc1oc(-c2cccc(Cl)c2)nc1CSc1nncn2c1cc1occc12 | -2.8% | -2.1%
O=C(CCn1c(=O)oc2ccccc21)Nc1ccon1 | -8.3% | -12.3%
NC(=S)NN=C(c1ccc(Br)cc1)C1CC1 | ? | ?
COc1ccc2c(CNCCc3ccco3)c(C(=O)O)n(Cc3ccccc3)c2c1 | -6.2% | -5.5%
COc1ccc(NC(=O)c2c(NCc3cccc(F)c3)sc3c2CCCC3)c(OC)c1 | -7.5% | -8.0%
C=C1CCN([C@@H](C)C(=O)NCc2cc(OC)c(OC)c(OC)c2)S(=O)(=O)c2ccccc21 | -24.7% | i
CCCS(=O)(=O)N1CCC(C(=O)NCCCOC(C)C)CC1 | -2.3% | i
CCSc1ccccc1C(=O)NCCc1ccccc1 | -5.7% | i
CC(Nc1nc(N2CCCC2)nc2ccccc12)c1ccccc1 (stereo unspecified) | ? | -29.9%
Cc1sc2ncnc(N(C)Cc3cccs3)c2c1C | -27.5% | .
COc1cccc(-c2nnc(NC(=O)CCS(=O)(=O)c3ccc(C)cc3)o2)c1 | ? | 10µM*
COC(=O)c1nc(Cl)c(Cl)c(N)c1Cl | 2.3% | 8.3%
COc1ccccc1CNS(=O)(=O)c1cccc2nsnc12 | -7.2% | -14.2%
Cc1ccc(-c2noc(C(C)NS(=O)(=O)c3ccc(C)cc3)n2)cc1 (stereo unspecified) | -5.2% | 2.0%
COc1ccc(CNC(=O)C(c2ccco2)N(C(=O)CNS(=O)(=O)c2ccccc2)c2ccccc2C)cc1 (stereo unspecified) | -19.6% | -24.9%
COC(=O)N/N=C/c1cc(Br)ccc1O | 2.4% | ?
N=c1c2c(n(Cc3ccc(Cl)cc3)c3c1CCC3)CCC2 | ? | -24.6%
COC(=O)c1ccc(N(CC(=O)NC2CCCC2)C(=O)CNC(=O)c2ccco2)cc1 | -3.5% | -8.3%
COc1ccc(C(=O)CC(=O)c2ccc(OC)cc2)cc1 | -26.7% | -3.3%
COc1ccc(C2Nc3ccc(NC(C)=O)cc3C(=O)N2Cc2ccccc2)cc1COc1ccc(NC(C)=O)cc1 (stereo unspecified) | -10.1% | -11.6%
CCc1ccccc1NC(=O)Cn1c(=O)n(-c2ccc(C)cc2)c(=O)c2cc(OC)c(OC)cc21 | 0.1% | -7.3%
CN(C(=O)c1ccc(NC(=O)Cc2cccc(NC(=O)C3CCCN(C(=O)C4CCCC4)C3)c2)cc1)C1CC1 (stereo unspecified) | 0.0% | -8.7%
Cc1ccc(NC(=O)CSc2nc(-c3ccco3)cc(C(F)(F)F)n2)cc1 | -20.2% | -21.8%
Cc1cccc(NC(=O)COc2cccc3c(=O)n(C)ccc23)c1C | -9.8% | -19.4%
SMILES | VACV Venus inh | VACV mCherry inh
CCN(CC)C(=O)Oc1cc(=O)n(C)c2ccccc12 | -7.5% | i
Cc1ccc(C)c(N2CCN(S(=O)(=O)c3c(C)nc4sccn4c3=O)CC2)c1 | -9.7% | -9.5%
O=c1oc2ccc(Cl)cc2cc1-c1nc(-c2cccs2)no1 | -0.4% | -11.9%
Cc1ccc(-n2nc(C(=O)N3CCN(c4cccc(C(F)(F)F)c4)CC3)c(=O)n(C)c2=O)cc1 | -21.4% | -22.3%
CCN(CC)CCN(C(=O)c1cc2c(ccc3ccccc32)oc1=O)c1nc2cc3c(cc2s1)OCCO3 | ? | 10µM*
O=C(CCc1nnc(CCCCc2ccccc2)o1)N(CCO)Cc1ccccc1 | -13.6% | i
CCN1C(=O)[C@@H]2[C@@H](c3ccc(-c4ccc(C(C)=O)cc4)cc3)N3CCCC[C@@]3(C(=O)OC)[C@@H]2C1=O | -19.7% | -9.0%

Shown with two lines to a compound: 4 of the compounds above.
Each structure is followed by: VACV Venus inh, VACV mCherry inh
Cc1ccc(C)c(N2CCN(S(=O)(=O)c3c(C)nc4sccn4c3=O)CC2)c1
→ -9.7%, -9.5%
O=c1oc2ccc(Cl)cc2cc1-c1nc(-c2cccs2)no1
→ -0.4%, -11.9%
Cc1ccc(-n2nc(C(=O)N3CCN(c4cccc(C(F)(F)F)c4)CC3)c(=O)n(C)c2=O)cc1
→ -21.4%, -22.3%
CCN(CC)CCN(C(=O)c1cc2c(ccc3ccccc32)oc1=O)c1nc2cc3c(cc2s1)OCCO3
→ ?, 10µM*

From PubChem BioAssay

Random draw from the library. Share with any hit: about 0.82%.
